Compound activity from PubChem BioAssay.
D2 potentiator – Beta-Arrestin HTS for Positive Allosteric Modulators of the Human D2 Dopamine Receptor: Potentiators; DiscoveRx D2 beta-arrestin cells, luminescence, 90 min; 100% = 57 uM dopamine signal; 0.23% of 360,000 active; potentiation, % (concentration not given with the values); D(2) dopamine receptor (Homo sapiens), P14416; active = potentiation of 50% or more; inconclusive = 30% to 50%; inactive = 30% or less;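 further: compound concentration not given in the record; tested on top of an EC20 dose of dopamine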
Target sequence (P14416 whole entry, looked up): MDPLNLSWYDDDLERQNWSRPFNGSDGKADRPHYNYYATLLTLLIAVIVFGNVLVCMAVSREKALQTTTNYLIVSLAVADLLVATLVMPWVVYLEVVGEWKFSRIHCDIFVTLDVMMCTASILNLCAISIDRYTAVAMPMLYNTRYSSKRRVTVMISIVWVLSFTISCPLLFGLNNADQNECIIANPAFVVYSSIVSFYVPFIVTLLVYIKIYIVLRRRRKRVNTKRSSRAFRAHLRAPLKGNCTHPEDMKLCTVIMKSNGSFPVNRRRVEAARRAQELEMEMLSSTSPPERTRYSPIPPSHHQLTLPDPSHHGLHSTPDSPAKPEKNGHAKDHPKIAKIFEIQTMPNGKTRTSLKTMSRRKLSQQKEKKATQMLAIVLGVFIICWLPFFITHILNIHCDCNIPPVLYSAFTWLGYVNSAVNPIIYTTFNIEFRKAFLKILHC
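D2 cells co-treated with compound plus 50 nM dopamine (EC20) for 90 min at 37 deg C to detect potentiation. Beta-arrestin recruitment was read as enzyme-fragment luminescence after 1 h at ambient temperature. Full response was set by 57 uM dopamine.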
ClpP mod – qHTS Assay for Activators of ClpP | ATP-dependent Clp protease proteolytic subunit (Bacillus subtilis (strain 168)), P80244 | purified B. subtilis ClpP, FRET peptide cleavage, 20 min | Potency, µM (doses to about 57.5 µM), without a hit: at the highest dose activity change, negative = active | 1.9% of 340,000 active; active = well fitted falling curve with a large enough effect; inconclusive = small, poorly fitted or top-dose-only effect; inactive = no such curve, though single readings can be large or run the other way; further: potency means the concentration at half of the fitted maximal effect; the source files actives as falling curves though it sought activators and does not explain the sign; nearly all actives have a fitted effect of over 65% in size; many hits overshoot -100%
Target sequence (P80244 whole entry, looked up): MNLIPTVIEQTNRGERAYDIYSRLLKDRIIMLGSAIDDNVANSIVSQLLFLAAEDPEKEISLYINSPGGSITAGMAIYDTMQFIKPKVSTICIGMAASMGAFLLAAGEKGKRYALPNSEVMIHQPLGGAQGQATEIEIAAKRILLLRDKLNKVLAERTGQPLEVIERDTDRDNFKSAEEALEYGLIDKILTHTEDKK
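Purified B. subtilis ClpP, 10 microg/mL final in Tris/HCl pH8 with KCl, BSA, glycerol and Tween-20, cleaved an Abz/nitrotyrosine-quenched decapeptide. Fluorescence (ex 320, em 430) was read at 0 and 20 min at room temperature. Delta was normalized to 5.8 microM ADEP and DMSO/no-enzyme controls.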
Menin MLL FP FL – qHTS Assay for Inhibitors Targeting the Menin-MLL Interaction in MLL Related Leukemias: Competition With Fluorescein Labeled MLL-derived Peptide | Fluorescence polarization, fluorescein-MLL peptide displacement from menin | FP activity change, % at 61.4 µM | 290,000 tested, under 10 active; inconclusive = falling polarisation curve, or a change in total fluorescence; inactive = total fluorescence flat and polarisation flat or rising; no compound was filed as active; the % refers to the polarisation; negative = inhibition;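 further: % of control where 0% means no effect; inhibitors lower the polarisation; unlabelled MLL peptide was the positive control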
Sfp inh – qHTS Assay for Inhibitors of Bacillus subtilis Sfp phosphopantetheinyl transferase (PPTase); 4'-phosphopantetheinyl transferase ffp (Bacillus subtilis), Q9F4F7; 3.5% of 310,000 active; Biochemical Sfp PPTase activity, qHTS; Potency, µM, for inactives: max response, negative = inhibition, most hits filed as inhibitors; active means well fitted inhibition curve with a large enough effect; inconclusive means small, poorly fitted or top-dose-only effect, or another doubt; inactive means no such curve, though single readings can be large or run the other way;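 further: the enzyme is Sfp with the accession as filed and its product quenches rhodamine fluorescence; potency means the concentration at half of the fitted maximal effect; 0% = enzyme reaction without inhibitor and -100% = no enzyme wells; top concentration of the series not given in the record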
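Fluorescence-quenching assay: 15 nM Sfp-PPTase preincubated 15 min at room temperature with compound, then 5 uM rhodamine-CoA and 12.5 uM BHQ-2-labelled YbbR peptide added. Fluorescence (ex 525/em 598 nm) read at start and after 30 min; difference gives rate.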
gsp ag – qHTS for Agonist of gsp, the Etiologic Mutation Responsible for Fibrous Dysplasia/McCune-Albright Syndrome: qHTS; 0.13% of 340,000 active; gsp mutant cells, cAMP HTRF, 30 min; control for the full effect not named in the record; Potency, µM (top dose mostly 76.9 µM), inactives show at the top dose activation (cAMP increase), hits mostly activators; active = well fitted activation curve with a large enough effect; inconclusive = small, poorly fitted or top-dose-only effect, or another doubt; inactive = no such curve, though single readings can be large or run the other way; cell line not stated here;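 further: phosphodiesterase inhibitor Ro 20-1724 added with compounds to block cAMP breakdown; potency means the concentration at half of the fitted maximal effect; nearly all actives have a fitted effect of over 60% in size; about a fifth of the inactives were tested at one dose only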
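Cells in DMEM/10% FBS with G418 were pretreated with compounds in DMSO plus […] (300 uM stock) for 30 min at 37C. cAMP was measured by HTRF (cAMP-d2 plus anti-cAMP antibody-K) after 30 min at room temperature.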
TRPV1 potentiator – HTS Assay for Compounds that Act as Potentiators of the Vanilloid Receptor 1. TRPV1-expressing cells, Fluo-8 calcium influx, capsaicin EC20 potentiation; host cell line not named in the record; control for the full effect not named in the record. potentiation, % at 8.33 µM. 0.02% of 320,000 active. Transient receptor potential cation channel subfamily V member 1 (Homo sapiens), Q8NER1; active means potentiation above 80%; inconclusive means 30% to 80%; inactive means below 30%; further: 0% is about no effect
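Fluo-8 calcium influx in TRPV1-expressing cells, kinetic read (ex 480/em 520 nm). Compound added and read 3 min for agonist activity, followed by capsaicin at EC20 final and 2 min further read for enhancement.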
gsp antagonist – qHTS for Antagonists of gsp, the Etiologic Mutation Responsible for Fibrous Dysplasia/McCune-Albright Syndrome: qHTS. gsp-mutant cells, cAMP HTRF, 30 min; control for the full effect not named in the record. Potency, µM (highest dose often 76.9 µM), inactives show top-dose activity change, negative = inhibition, hits mostly inhibitors. 0.4% of 340,000 active; active = falling curve of any shape with a large fitted effect; inconclusive = falling curve, mostly with a smaller effect; inactive = flat or rising curve; cell line not stated here;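 further: intracellular cAMP measured with PDE inhibitor Ro 20-1724 present during compound exposure; potency means the concentration at half of the fitted maximal effect; on the % scale 0 is the no-effect control and ±100 the full control effect; nearly all actives have a fitted effect of over 65% in size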
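HTRF cAMP read-out (cAMP-d2 plus anti-cAMP antibody-K in lysis buffer, 30 min RT). Before lysis, cells are exposed to compounds with […] for 30 min at 37C in DPBS containing Ca/Mg, BSA and Tween 20.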
An asterisk follows results filed as active; u = inconclusive; x = no result given; & = joins results of further samples; [ ] = dose if it differs, or a comment.

SMILES	D2 potentiator	ClpP mod	Menin MLL FP FL	Sfp inh	gsp ag	TRPV1 potentiator	gsp antagonist
CC(C)c1ccc(O)c(C(=O)c2cnn(-c3ccccc3)c2)c1	-1.5	1.2%	x	x	-1.5%[15.4 µM]	x	-12.6%
COc1cccc(-c2nc3cc(C)ccc3o2)c1	-12.4	u	-0.5	u	-23.9%[15.4 µM]	-3.2	-10.5%
Cc1ccc(F)c(CNC(=O)C2CCC(=O)N(CCCN3CCCC3=O)C2)c1F (stereo not given)	2.4	0.5%	x	7.0%	20.6%	u	23.2%
CCOc1ccnc2c1c(=O)n(Cc1cc(OC)cc(OC)c1)c(=O)n2C	-26.1	-3.9%	0.4	10.6%	-14.3%	-8.6	7.8%
CC(=O)Nc1ccc(S(=O)(=O)NCCCc2ccccc2)cc1	-7.2	-3.0%	-3.3	12.7%	-18.7%[15.4 µM]	-1.3	-0.6%
COc1ccc(CCC(=O)Nc2ccc(S(=O)(=O)N3CCOCC3)cc2)cc1	-2.2	x	-0.5	-2.0%	-9.6%	0.1	7.7%
Cc1ccc(C(=O)Nc2cc(C(F)(F)F)ccc2N2CCCCC2)cc1[N+](=O)[O-]	-4.2	0.9%	2.0	-8.0%	u	-9.2	-1.0%
O=C(Nc1nnc(C2=COCCO2)o1)c1ccc([N+](=O)[O-])s1	-4.7	0.5%	-4.2	5.3%	-19.8%	-3.0	-10.0%
O=C(NC(N1CCCC1)C(Cl)(Cl)Cl)c1ccccc1 (stereo not given)	17.2	u	1.0	18.1%	-2.6%	-9.1	6.1%
Clc1ccc(C2=NCCN2)cc1	-1.4	0.5%	-0.4	2.4%	u	8.3	13.5%
COc1cc(CO)c(OC)c([N+](=O)[O-])c1	-18.2	0.7%	-0.9&-2.0	-12.5%&-1.2%	-2.7%	-7.9	7.7%
CCOC(=O)Cn1c(=O)oc2cc(S(=O)(=O)N3CCC(N4CCCCC4)CC3)ccc21	-5.2	-1.7%	-1.8	19.6%	-6.2%	8.7	7.5%
O=C1c2ccccc2C(=O)N1CNc1ccccc1	-8.3	0.1%	2.5	16.5%	0.5%	5.2	-5.6%
COc1ccc(-c2sc(C(=O)c3ccc(Cl)cc3Cl)cc2CC(=O)O)cc1	-5.5	u	-0.6	5.1%	35.8%[15.4 µM]	14.4	u
Cc1cccc(NC(=O)c2cnc3sccn3c2=O)n1	4.3	-7.2%	x	x	8.3%	x	10.2%
CC(C(=O)O)c1ccc(CC2CCCC2=O)cc1 (stereo not given)	5.1	0.7%	-2.1	4.6%	x	x	1.7%
Cc1nn(CC(=O)OCC(=O)NCCc2ccc(F)cc2)c(C)c1[N+](=O)[O-]	-2.5	1.2%	x	x	0.6%	x	4.5%
Cc1ccc(NC2=NCC(=O)N2Cc2ccc3c(c2)OCO3)c(C)c1	1.0	-0.1%	4.3	18.6%	14.0%	-7.7	3.5%
OCC1(CCc2ccccc2)CCN(C/C=C/c2ccccc2)CC1	-4.0	1.4%	1.4	6.2%	28.6%	0.9	13.7%
CCN(CC)CCN(C(=O)CCOc1ccccc1)c1nc2c(F)cc(F)cc2s1	-6.9	x	-4.6	-8.7%	-25.9%[15.4 µM]	28.1	5.3%
CC(C)Oc1ccc(C(=O)Nc2ccc(Cl)c(S(=O)(=O)Nc3ccc(Cl)cc3)c2)cc1	3.7	-1.9%	6.3	17.7%	u	-1.1	-24.7%
CC(C)COC(=O)c1nnsc1NC(=O)Nc1ccccc1	-0.8	-1.2%	1.4	1.6%	u	-10.2	-3.7%
COc1ccc2c(c1C)CCC(C)(C#N)C2=O (stereo not given)	0.9	x	x	x	7.6%	x	2.2%
COc1ccc2cc(CCN3C(=O)c4ccccc4C3=O)c(=O)[nH]c2c1	-3.6	3.0%	1.8	8.1%	11.2µM*	13.6	8.4%
CCOC(=O)c1ccc[n+]([O-])c1	-3.7	x	x	x	26.8%	x	-5.0%
COc1cc(NC2c3ncccc3C(=O)N2Cc2ccco2)cc(OC)c1 (stereo not given)	3.7	-0.7%	2.9	44.7µM*	-64.6%[inhibitor]	8.7	8.1%
COC(=O)C1=CN(Cc2ccc(OC)cc2)C=C(C(=O)OC)C1c1cc(OC)c(OC)c(OC)c1	-3.9	x	0.8	-4.9%	-7.6%	0.8	7.7%
CC(=O)NC1=NN(C(C)=O)C(C)(c2cccnc2)S1 (stereo not given)	2.8	0.6%	-6.5	-16.3%	7.5%[15.4 µM]	5.0	3.6%
CC(=O)N(C(C)=O)c1cccc2c(N(C(C)=O)C(C)=O)cccc12	-7.1	-0.1%	-0.9	24.8%	0.3%	5.5	3.2%
O=C(NCc1ccco1)C1CCN(C(=O)c2ccc(Cl)cc2)CC1	-3.5	1.7%	x	x	u	14.7	3.6%

Limited to Sfp inh, ClpP mod and gsp antagonist (3 entries from above):
SMILES,Sfp inh,ClpP mod,gsp antagonist
CC(C)Oc1ccc(C(=O)Nc2ccc(Cl)c(S(=O)(=O)Nc3ccc(Cl)cc3)c2)cc1,17.7%,-1.9%,-24.7%
CC(C)COC(=O)c1nnsc1NC(=O)Nc1ccccc1,1.6%,-1.2%,-3.7%
COc1ccc2c(c1C)CCC(C)(C#N)C2=O (stereo not given),x,x,2.2%

Next compounds
SMILES	D2 potentiator	ClpP mod	Menin MLL FP FL	Sfp inh	gsp ag	TRPV1 potentiator	gsp antagonist
Clc1cccc(Cl)c1NC1=NCCC1	-21.1	-5.1%	1.4	18.4%	12.9%	-4.1	8.3%
CNc1nn(-c2cccc(Cl)c2)nc1N	8.5	31.6µM*	3.5	-0.2%	-11.5%	-13.6	-15.9%
O=C(Nc1ccccc1F)NC1CCCc2ccccc21 (stereo not given)	0.8	x	6.6	-5.0%	18.7%	3.9	2.5%
CCCCCCCN=C(C)c1ccccc1O	-7.1	-0.4%	-0.8	12.9%	0.7%[15.4 µM]	-3.3	10.1%
CCOC(=O)c1c(C)oc2ccc(OC(=O)c3cccs3)cc12	-6.5	-0.3%	1.9	-16.0%	-39.0%[inhibitor]	6.3	2.9%
COc1ccc(OC)c2c(=O)cc(C(=O)O)[nH]c12	3.0	0.0%	12.3	-23.7%	7.9%[15.4 µM]	-1.5	2.3%
CC(=O)c1ccc2c(c1)Nc1ccccc1S2	51.9*	31.6µM*	-0.8	5.7%	-1.5%	-2.9	-10.3%
COC(=O)c1cccc(Oc2nc3c(c(=O)n(C)c(=O)n3C)n2Cc2ccc(C)cc2)c1	-6.2	-2.1%	x	x	7.94µM*	x	10.3%
COc1cc(S(=O)(=O)N2CCN(C(=O)c3cccs3)CC2)ccc1NC(C)=O	-6.1	0.5%	x	x	-2.0%	x	x
CCOC(=O)Cc1csc(SCC(=O)NC2CCCC2)n1	-16.1	1.5%	x	x	19.4%[15.4 µM]	-4.1	-14.3%
O=C(COC(=O)C1CC2CCCC(C1)C2=O)c1cccc(Br)c1 (stereo not given)	-19.4	-2.4%	x	x	-11.0%	-3.1	-3.4%
CC(C)(C)NC(=O)CN1C(=O)NC(c2ccccc2)(c2ccccc2)C1=O	-4.5	x	-3.0	11.9%	0.3%	-7.6	3.2%
COc1ccccc1N1CCN(C2CCN(C3CCC(c4ccccc4)CC3)CC2)CC1 (stereo not given)	x	x	-4.8	56.2µM*	x	4.0	x
Cc1cc(/C=C2/NC(=O)NC2=O)c(C)n1-c1ccccn1	5.3	-4.7%	-0.8	10.9%	3.7%	3.4	13.3%
O=C(NNC(=O)c1cccc(S(=O)(=O)N2CCCCC2)c1)c1ccccc1	-3.8	1.6%	x	x	-30.7%[inhibitor]	x	13.3%
CN1CCN(c2ccc(NC(=O)Cc3ccccc3)cc2)CC1	1.7	-1.0%	-2.0	19.2%	0.0%	u	15.0%
COc1ccc(NC(=O)N(C)[C@H]2C[C@H]3c4[nH]c5ccc(-c6cccc(C)c6)cc5c4CCN3C[C@H]2[C@H](C)O)cc1	-3.6	-22.7%	x	x	-35.8%[inhibitor]	x	x
O=C(C[n+]1cc(-c2ccc(F)cc2)n2c1CCC2)Nc1nc(-c2ccccc2)cs1	-31.7	0.7%	-0.6	-13.8%	0.0%	7.2	10.8%
COc1ccc2c(c1)c(C(=O)N/N=C/c1ccccc1Cl)c(C)n2C	-2.3	x	2.0	11.2%	13.7%	-12.9	u
CCn1nc(NC(=O)Cc2ccc(OC)cc2)c2cc3cc(C)ccc3nc21	-0.1	u	3.1	-10.3%	-6.0%	-14.1	0.2%
CN(C)N1C(N)=C(C#N)C(c2ccccc2)C2=C1CC(C)(C)CC2=O (stereo not given)	-7.1	x	0.2	10.0%	-4.2%	-14.0	3.6%
N#C/C(=C\c1ccc(-c2cccc([N+](=O)[O-])c2)o1)C(=O)NCCN1CCOCC1	-17.4	x	0.9	7.2%	13.6%[15.4 µM]	-2.6	u
COCCn1ccc2c(OCC(=O)Nc3cccc(NC(C)=O)c3)cccc2c1=O	-29.5	u	x	x	-3.6%	21.0	-7.2%
CC(C)(C)c1ccc(S(=O)(=O)NCCc2ccncc2)cc1	-1.0	0.8%	-0.1	11.2%	-33.1%[inhibitor]	-9.3	-2.3%
COC(=O)COc1ccc(S(=O)(=O)Nc2ccc(C(N)=O)cc2)cc1C	-7.3	-0.8%	2.0	-1.0%	-31.1%[inhibitor]	-1.0	-1.5%
Cc1ccc(NC(=O)CN2C(=O)N/C(=C/c3ccc(N4CCOCC4)cc3)C2=O)cc1	-5.5	5.7%	2.2	12.0%	27.8%[15.4 µM]	-10.0	-3.2%
